Screens from PubChem BioAssay.
VCAM-1 up imaging: enhancers of VCAM-1 display on endothelial cells, imaging, high-content imaging, pooled HUVEC, TNFa stimulus (AID 457). Pooled HUVEC, TNFa-induced VCAM-1 immunofluorescence imaging; hits of this screen are not shown here. calls only. 0.2% of 10,000 active;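 active = a top-ranked rise in VCAM-1 staining upheld on image or statistical review; inactive = the rest, including candidates rejected on review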;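 note: compounds tested at 5 µM in the well; cells exposed to compound for 24 hours before fixing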
FPRL1 binder: human FPRL1 ligands by binding competition, primary screen, cell-based, FPR counter-screen, flow cytometry | 0.3% of 24,000 active | FPRL1-expressing cells, fluorescent ligand binding inhibition | inhibition, %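 (tested at 6.7 µM)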;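 note: 0% = buffer alone and 100% = receptor blocker peptide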
Target sequence (P25090 whole entry, looked up): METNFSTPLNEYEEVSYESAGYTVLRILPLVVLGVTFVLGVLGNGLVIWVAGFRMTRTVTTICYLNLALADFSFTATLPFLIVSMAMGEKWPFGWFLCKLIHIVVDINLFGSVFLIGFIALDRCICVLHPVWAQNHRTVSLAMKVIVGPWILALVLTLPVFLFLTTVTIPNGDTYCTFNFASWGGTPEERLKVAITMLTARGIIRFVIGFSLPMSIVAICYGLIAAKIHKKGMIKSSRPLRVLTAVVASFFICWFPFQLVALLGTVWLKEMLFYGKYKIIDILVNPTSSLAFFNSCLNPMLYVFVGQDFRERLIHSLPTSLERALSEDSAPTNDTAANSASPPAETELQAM
VCAM-1 imaging: inhibitors of TNFa-induced VCAM-1 surface display, imaging, high-content imaging, pooled HUVEC, TNFa stimulus (AID 456); HUVEC TNFa-induced VCAM-1 surface expression, immunofluorescence imaging; numbers were filed only for top-ranked candidate wells; inhibition, % at 5 µM, or IC50 in µM where a hit was titrated; 0.2% of 10,000 active;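 active = top tenth filtered wells with inhibition above zero that passed visual or statistical confirmation; inactive = the rest, including hits rejected on review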;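 note: 0% = stimulated vehicle wells and 100% = unstimulated cells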
FPR ligand: human FPR ligands by binding competition, primary screen, cell-based, FPRL1 counter-screen, flow cytometry; 0.74% of 24,000 active; AID 440, 2006; fMet-Leu-Phe receptor (Homo sapiens), P21462; FPR-expressing cells, fluorescent ligand binding; inhibition, %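 (tested at 6.7 µM)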;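 note: 0% = buffer wells and 100% = receptor blocker peptide wells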
Target sequence (P21462 whole entry, looked up): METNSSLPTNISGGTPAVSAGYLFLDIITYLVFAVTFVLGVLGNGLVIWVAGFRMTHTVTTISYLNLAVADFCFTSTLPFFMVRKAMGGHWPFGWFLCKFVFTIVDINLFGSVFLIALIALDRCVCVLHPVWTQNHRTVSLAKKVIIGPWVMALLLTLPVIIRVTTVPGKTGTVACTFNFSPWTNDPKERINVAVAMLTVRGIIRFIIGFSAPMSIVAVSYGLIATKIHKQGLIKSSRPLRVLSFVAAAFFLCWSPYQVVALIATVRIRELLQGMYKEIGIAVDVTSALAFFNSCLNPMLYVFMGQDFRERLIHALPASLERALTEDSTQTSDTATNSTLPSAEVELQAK
VCAM-1 down: inhibitors of TNFa-induced VCAM-1 surface display, cell-based, plate reader, pooled HUVEC, TNFa stimulus (AID 454) | HUVEC TNFa-induced VCAM-1 surface immunofluorescence, plate reader; numbers were filed only for top-ranked candidate wells | inhibition, % at 5 µM | 0.2% of 10,000 active;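 active = compound among top-ranked inhibitors of TNF-induced VCAM-1 adhesion protein staining, with the hit upheld by image or statistical review; inactive = the rest, including hits rejected on review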;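 note: 0% = TNFa with vehicle and 100% = cells without TNFa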
Starred values were filed as active, the others as inactive; i = inactive; / = no result given.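 Rule for the calls, unless noted: active = mean above 30%; inconclusive = self-fluorescent; inactive = the rest.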 These rows are one share of the data; the hit share may differ from the screen's.

mol	VCAM-1 down	VCAM-1 up imaging	FPRL1 binder	VCAM-1 imaging	FPR ligand
Cc1ccc2nc(NC(=O)C3CCCN(S(=O)(=O)c4cccc5nsnc45)C3)sc2c1 (centres undefined)	/	/	-5	/	-6
CN(C1CCCCC1)S(=O)(=O)c1ccc(NC(=O)c2ccco2)cc1	i	i	2	i	1
COc1cccc(-n2c(CNc3ccc(F)cc3)nnc2SCC(N)=O)c1	i	i	-2	i	0
CCOC(=O)Nc1ccc(S(=O)(=O)NCc2ccccc2)cc1	/	/	-5	/	0
O=C1c2ccccc2CN1CCNS(=O)(=O)c1ccc(Cl)cc1	i	i	-2	i	-1
CC(C)Cn1c(=O)c(C(=O)Nc2ccccc2S(N)(=O)=O)c(O)c2ccccc21	i	i	11	i	-3
CCOc1ccc(C2C(C(=O)Nc3ccc(F)cc3)=C(C)Nc3nc(CCCO)nn32)cc1 (centres undefined)	/	/	0	/	-1
Cc1nn(Cc2ccc(Cl)c(Cl)c2)c(C)c1NC(=O)c1cc(-c2ccco2)on1	/	/	-4	/	-7
CC(C)(C)OC(=O)NC(CCNC=C1C(=O)OC(C)(C)OC1=O)C(=O)O (centres undefined)	i	i	2	i	-2
CS(=O)(=O)N1CCN(C(=O)c2ccc(-c3ccccc3)cc2)CC1	i	i	-3	i	2
CNC(=O)Nc1cc(C(C)(C)C)no1	/	/	-4	/	2
CCC(C)NC(=O)Cn1cnc2sc(C)cc2c1=O (centres undefined)	/	/	6	/	-2
O=C1c2ccccc2C(O)(Cc2ccccc2)N1CCCN1CCOCC1 (centres undefined)	/	/	5	/	-1
CC1CC(C)CN(CCCn2c(=S)[nH]c3ccccc3c2=O)C1 (centres undefined)	/	/	-11	/	-4
CN(C)c1cc(O)c(C(=S)Nc2ccccc2)c(N(C)C)c1	/	/	-5	/	-8
CC(CN(C)Cc1ccccc1)OC(=O)c1ccc2c(c1)OCCO2 (centres undefined)	i	i	1	i	2
O=C(Nc1nc(-c2ccncc2)cs1)c1ccc(S(=O)(=O)N2CCOCC2)cc1	/	/	4	/	-2
Oc1c(I)cc(I)c2cccnc12	i	i	1	i	7
Clc1ccccc1C1CC(c2ccccc2)Nc2ncnn21 (centres undefined)	/	/	1	/	-1
Cc1ccc2c(c1)CCCN2C(=O)Nc1ccc2c(c1)OCO2	i	i	5	i	-3
CC1(C)CC(=O)C(C(c2ccccc2F)C2C(=O)CC(C)(C)CC2=O)C(=O)C1	/	/	1	/	18
CC(=O)C1C(c2ccncc2)NC(=O)NC1(O)C(F)(F)F (centres undefined)	/	/	1	/	-1
CON(C)c1nc(Oc2ccc(=O)[nH]n2)nc(N(C)C)n1	i	i	2	i	10
Cc1ccccc1-n1c(SCc2ccccn2)nc2n[nH]c(C)c2c1=N	/	/	-2	/	6
COC(=O)c1ccccc1OCC(=O)NC1CCCCC1	i	i	-5	i	-2
Cc1ccc(S(=O)(=O)c2cc3c(=O)n4ccccc4nc3n(CC3CCCO3)c2=N)cc1C (centres undefined)	i	i	0	i	8
CSCCC(NC(=O)C1CCC(C)CC1)C(=O)N1CCN(c2ccccn2)CC1 (centres undefined)	/	/	12	/	5
COc1ccc(CCNC(=O)CCNS(=O)(=O)c2cccc3nsnc23)cc1OC	/	/	5	/	3
COC(=O)c1ccc(-c2ccc(CNCC(O)c3ccccc3)o2)cc1 (centres undefined)	i	i	-8	i	4
O=C(NCCc1c[nH]c2ccccc12)C1CCN(c2nnc(N3CCCC3=O)s2)CC1	/	/	1	/	-3
CCN(CC)c1ccc(NC(=O)Cn2cc3c(n2)CCC(C)C3)c(C)c1 (centres undefined)	/	/	-2	/	0
CCOc1ncccc1C(=O)OCC(=O)N1CC(=O)Nc2ccccc21	i	i	-3	i	0
C=C(C)COc1ccc(-c2nc(N)ncc2-c2ccc(OC)cc2)c(O)c1	i	i	0	i	-4
O=C(NC1CCCC1)c1sc(=S)n2c1[nH]c(=O)c1ccccc12	/	/	0	/	95*
CC1(C)CC(=O)c2cc(OCC(=O)NCCCN3CCN(c4ccc(F)cc4)CC3)ccc2O1	/	/	-1	/	-4
CCOC(=O)c1ccc(-n2c(N)c(C(=O)NCc3ccco3)sc2=S)cc1	/	/	0	/	2
CCOc1ccc(-n2cc(C(=O)N3CCC(C)CC3)c3cc(OC)c(OC)cc3c2=O)cc1	/	/	-5	/	8
COc1ccc(S(=O)(=O)Cc2ccc(C(=O)N3CCN(c4cc(Cl)ccc4C)CC3)o2)cc1	/	/	4	/	19
CCOC(=O)N1CCC(NC(=O)C2CCC(Cn3c(=O)[nH]c4ccccc4c3=O)CC2)CC1 (centres undefined)	i	i	-1	i	4
C(=N/n1c2ccccc2c2ccccc21)/c1ccco1	i	i	-12	i	-4
O=C(O)c1cccc(N2C(=O)C3CC=C(Cl)CC3C2=O)c1 (centres undefined)	/	/	-4	/	-5
Cn1c(SCc2ccc3c(c2)OCO3)nnc1-c1ccccc1	i	i	-8	i	4
CN1CCN(C(=O)C2CCN(S(=O)(=O)c3cnc[nH]3)CC2)CC1	/	/	-2	/	3
Cc1ccc(CCNC(=O)C2CCCN(S(=O)(=O)c3cnc[nH]3)C2)cc1 (centres undefined)	i	i	6	i	2
Cc1nc2ccc(S(=O)(=O)NC(C(=O)NC3CCCC3)C(C)C)cc2s1 (centres undefined)	/	/	10	/	8
O=C(C1=C(O)C(=O)N(CCN2CCOCC2)C1c1ccccn1)c1cccs1 (centres undefined)	/	/	-4	/	-4
CCOC(=O)c1sc(N2C(=O)C(O)=C(C(=O)c3ccco3)C2c2ccccc2)nc1C (centres undefined)	i	i	-5	i	10
O=C(CCn1c(=O)sc2ccccc21)Nc1nccs1	i	i	6	i	4
CC(=O)COC(=O)c1cccc(N2C(=O)C3C4C=CC(C4)C3C2=O)c1 (centres undefined)	/	/	-6	/	3
COc1ccc(O)c(C2NC(CC(C)C)(C(=O)O)C3C(=O)N(Cc4ccccc4)C(=O)C23)c1 (centres undefined)	/	/	6	/	24
Cc1ccc(NC(=O)C2C3C=CC4(CN(Cc5cccnc5)C(=O)C24)O3)cc1F (centres undefined)	/	/	3	/	1
CC1=C(C(=O)NCc2ccc3c(c2)OCO3)C2(CCC(C)CC2)OC1=O (centres undefined)	/	/	-4	/	2
c1ccc(CNC2=NCCCC2)cc1	/	/	-4	/	-1
O=C(NCC1CCCO1)c1sc(=S)n2c1[nH]c(=O)c1ccc(C(=O)N3CCCCC3)cc12 (centres undefined)	/	/	-1	/	-1
CCOC(=O)N1CCC(NC(=O)CCN2C(=O)C3C4C=CC(C4)C3C2=O)CC1 (centres undefined)	/	/	1	/	6
CCOC(=O)c1ccc(Nc2ncnc3nc[nH]c23)cc1	/	/	-7	/	-14

The list goes on:
mol	VCAM-1 down	VCAM-1 up imaging	FPRL1 binder	VCAM-1 imaging	FPR ligand
COc1ccc(N2CCN(CCCNC(=O)CC3Oc4ccc(C)cc4NC3=O)CC2)cc1 (centres undefined)	i	i	6	i	5
O=C(CSc1nc2c(c(=O)n1-c1ccc(Br)cc1)SCC2)Nc1nccs1	/	/	2	/	0
Cc1ccc(-n2nnc3c(=O)oc4ccccc4c32)cc1	/	/	-4	/	-9
COc1cccc(-c2nnc(NC(=O)Cc3cccs3)s2)c1	i	i	-1	i	2
COCCSc1nnc(NC(=O)CSCc2ccccc2)s1	i	i	-1	i	6
COc1ccc(OC)c(-c2nc3c(C)n[nH]c(=O)c3[nH]2)c1	i	i	10	i	3
CCOc1cccc2cc(C(=O)Nc3nccs3)c(=O)oc12	/	/	-2	/	-1
Cn1cc(/C=N/n2cnc3scc(-c4ccc(Cl)cc4)c3c2=O)c2ccccc21	/	/	4	/	2
COc1c(Cl)cc(-c2noc(C)c2C(=O)NCc2ccc3c(c2)OCO3)cc1Cl	/	/	-1	/	0
CC(C)CN(C(=O)COC(=O)Cc1n[nH]c(=O)c2ccccc12)C1CCS(=O)(=O)C1 (centres undefined)	i	i	-1	i	6
Cc1ccnc(N2C(=O)c3ccccc3C2Nc2cccc(C)c2C)c1 (centres undefined)	/	/	2	/	-8
O=C(NC12CC3CC(CC(C3)C1)C2)C1CCCN1C(=O)NC1CCCCC1 (centres undefined)	i	i	6	i	2
C=CCOC(=O)C1=C(C)Nc2nnnn2C1c1cc(OC)ccc1OC (centres undefined)	/	/	-1	/	-4
CCN(CC)CCNC(=O)CS(=O)Cc1nc(-c2ccc(C)cc2)oc1C (centres undefined)	/	/	10	/	1
O=C1CN(C(=O)c2ccc(Br)o2)C(c2ccc(F)cc2)c2cc(Cl)ccc2N1 (centres undefined)	/	/	5	/	-2
Cn1c(C(=O)N2CCCC(C(=O)O)C2)cc2sccc21 (centres undefined)	/	/	0	/	-4
CCC1CCCCN1C(=O)Cn1c(C(=O)OC)cc2sc(Cl)cc21 (centres undefined)	i	i	12	i	7
O=C(Nc1cccc(NC(=O)c2ccco2)c1)c1ccc2c(c1)OCO2	i	i	6	i	-5
CCOC(=O)N1CCC(N2C(=O)c3ccc(C(=O)Nc4ccc(F)cc4F)cc3C2=O)CC1	/	/	2	/	-1
C=CCN(CC=C)C(=O)c1ccncc1	i	i	3	i	-4
O=C(NC1CC1)c1scc2c1OCCO2	/	/	-1	/	-8
COc1ccc(-c2nc(-c3ccc(NC(=O)c4ccncc4)cc3)no2)cc1OC	/	/	-5	/	8
N#CC1=C(N)Oc2n[nH]c(-c3cccs3)c2C1c1cccs1 (centres undefined)	i	i	12	i	11
CCOc1ccc(C(=O)Nc2ccc(N3CCN(C)CC3)cc2)cc1Br	i	i	-4	i	-3
COc1ccc(C2C(C(=O)N3CCN(c4ccccc4)CC3)c3ccccc3C(=O)N2C)cc1OC (centres undefined)	/	/	0	/	2
CCN(CCCNC(=O)C1CCN(S(=O)(=O)CC)CC1)c1cccc(C)c1	/	/	-2	/	-3
CCc1ccc(NC(=O)N(CCCOC(C)C)C2CCN(C(C)=O)CC2)cc1	/	/	-22	/	-7
Cc1cccc(NC(=O)C2C3C=CC(C4CC34)C2C(=O)O)c1 (centres undefined)	/	/	0	/	-5
CCC(Sc1ncccc1C(=O)O)C(=O)N1CCCC1 (centres undefined)	i	i	4	i	-4
Cc1ccc2[nH]c3c(N4CCOCC4)ncnc3c2c1	i	i	5	i	-2
CCN(CC)CCNC(=O)Cn1nc(Cc2cccnc2)c2ccccc2c1=O	/	/	3	/	-3
O=C1c2ccccc2NC(c2cnc3ccccc3n2)N1O (centres undefined)	/	/	-1	/	-8
COc1ccc(OC)c(C2C(C(=O)Nc3ccc(F)cc3)=C(C)Nc3nc(CCCO)nn32)c1 (centres undefined)	i	i	7	i	-4
CCOC(=O)C1CCN(c2cc(=O)n(C3CCCCC3)c(=O)[nH]2)CC1	/	/	0	/	-13
CCOC(=O)CNC(=O)c1nn(-c2cccc(OC)c2)c(=O)c2ccccc12	/	/	-7	/	16
CN1[C@@H](CC(=O)c2ccccc2)CCC[C@H]1C[C@H](O)c1ccccc1	i	i	-4	i	-5
CN1C(=O)CC(C(=O)Nc2ccc(F)cc2)SC1=Nc1ccc2c(c1)OCO2 (centres undefined)	i	i	-10	i	9
Cc1cc(C(=O)COC(=O)c2n[nH]c3ccccc23)c(C)n1C	i	i	-6	i	3
Cc1ccc(CS(=O)(=O)Cc2ccc(C(=O)NCc3ccco3)o2)cc1	/	/	16	/	7
